# RecA intein inh – blocks M. tuberculosis RecA intein splicing; P9WHJ3; cell-free RecA intein splicing, fluorescence; inhibition, %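 (about 9 µM by stock and volumes)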; actives 0.75% (n = 290,000); AID 2221; in the data active = inhibition above about 30%; inconclusive = no clear call, values can overlap the other calls;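 note: 0% = vehicle wells and 100% = reference inhibitor control wells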
# Target sequence (P9WHJ3 whole entry, looked up): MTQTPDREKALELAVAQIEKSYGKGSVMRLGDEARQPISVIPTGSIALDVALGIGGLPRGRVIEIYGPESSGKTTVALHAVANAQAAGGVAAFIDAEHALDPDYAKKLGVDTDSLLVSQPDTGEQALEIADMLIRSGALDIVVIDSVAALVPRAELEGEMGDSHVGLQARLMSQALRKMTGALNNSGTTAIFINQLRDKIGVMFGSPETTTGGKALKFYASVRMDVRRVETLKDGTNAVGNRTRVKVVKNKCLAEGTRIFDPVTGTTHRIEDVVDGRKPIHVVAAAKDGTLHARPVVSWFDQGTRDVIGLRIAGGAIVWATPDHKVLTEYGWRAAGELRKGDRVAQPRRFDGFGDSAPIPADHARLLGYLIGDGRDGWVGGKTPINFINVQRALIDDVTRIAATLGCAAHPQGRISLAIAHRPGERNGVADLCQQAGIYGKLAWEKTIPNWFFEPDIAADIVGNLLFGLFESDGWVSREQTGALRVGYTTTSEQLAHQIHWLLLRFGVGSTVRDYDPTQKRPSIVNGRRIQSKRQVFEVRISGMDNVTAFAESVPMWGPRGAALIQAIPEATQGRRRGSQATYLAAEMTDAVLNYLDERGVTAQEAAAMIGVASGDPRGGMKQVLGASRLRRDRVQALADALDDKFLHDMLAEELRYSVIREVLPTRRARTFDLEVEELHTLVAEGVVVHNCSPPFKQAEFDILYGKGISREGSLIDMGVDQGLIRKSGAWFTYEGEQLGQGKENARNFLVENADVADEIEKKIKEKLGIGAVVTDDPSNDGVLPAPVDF
# Arbovirus anti – arbovirus infection inhibition; arbovirus infection cell-based antiviral screen; inhibition, % at 10 µM; actives 0.37% (n = 200,000);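 active = inhibition from about 30%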;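 note: bluetongue infection of BSR cells; cell survival read as ATP light after 72 h; 0% = infected wells without compound and 100% = uninfected wells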
# Mtb bLac sens – beta-lactam sensitization of Mtb H37Rv | AID 434955 | M. tuberculosis H37Rv growth with meropenem, percent inhibition; hits of this screen are not shown here | inhibition, % at 25 µM | actives 0.27% (n = 330,000);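 active = about 74% or more and at least 40 points above the plate without the antibiotic, then above 30% in a dose series; inconclusive = first-round hits that could not be retested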;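 note: growth measured after seven days incubation then overnight dye step; 0% = bacteria only wells and 100% = bacteria with antibiotic; twin plates without the antibiotic show which effects depend on it; some results filed as inactive read as strong as hits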
# Mtb growth – M. tuberculosis H37Rv growth inhibitors, H37Rv strain (AID 1626); M. tuberculosis H37Rv growth inhibition; higher % means a stronger effect; inhibition, % at 10 µM; hits with a dose series show IC50 in µM; actives 0.95% (n = 220,000);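 active = confirmed in a dose series; inconclusive = inhibition above 80% but not taken into the dose series; inactive = below 80% or under 30% at every dose of the series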;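 note: bacteria incubated seven days before Alamar blue readout; 0% = bacteria only wells and 100% = bacteria with antibiotic wells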
# YopH PTP inh – YopH (Yersinia) phosphatase inhibition | fluorescence Ex485/Em525 | AID 898 | actives 0.16% (n = 140,000) | inhibition, %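 (about 10 µM by stock and volumes)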;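 active = inhibition of 50% or more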;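 note: controls were vehicle for no effect and minimum signal wells for full effect; inactives centre near -20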
# Arbovirus anti repeat – further read-out of Arbovirus anti, marked with its call; inhibition, %; measured here: 10K subset replicate screen; many hits read low in the repeat;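 first of two repeat runs on a subset; 0% = infected and 100% = uninfected wells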
# Starred values were filed as active, the others as inactive; ? = inconclusive; · = no result given.
SMILES,RecA intein inh,Arbovirus anti,Mtb bLac sens,Mtb growth,YopH PTP inh,others
O=C(NC(=O)c1c(Cl)cccc1Cl)Nc1ccc(Oc2cccnc2)nc1,0.5,·,5.7,0.6%,·,
Oc1ccc(/C=N/n2c3ccccc3c3ccccc32)cc1,15.9,-23.6,98.3,0.7%,-21.5,
CC1CCCC(C)N1CC(O)COCC1COc2ccccc2O1 (stereo unspecified),1.8,-8.3,3.2,-3.7%,-42.7,
Cc1cccc(N(C(=O)CCC(=O)Nc2ccccn2)C(C(=O)NC(C)C)c2ccc(F)cc2)c1 (stereo unspecified),1.9,·,3.8,·,·,
Cc1ccc([C@@H]2[C@@H]3C(=O)N(C)C(=O)[C@@H]3[C@]3(Cc4ccccc4)C(=O)N(Cc4ccccn4)CC(=O)N23)o1,-0.7,·,-6.3,·,·,
Cc1ccc2nc(N(CCN3CCOCC3)C(=O)CCS(=O)(=O)c3ccccc3)sc2c1,3.2,·,-0.9,·,·,
CCOc1ccc(-c2nc(-c3cccnc3)no2)cc1,6.6,-8.4,-0.8,3.2%,-0.9,
Cc1cc(Cl)ccc1OCCCC(=O)OCC(=O)c1c(N)n(C)c(=O)n(C)c1=O,6.4,·,-5.1,·,·,
Cc1ccc(C)c(NC(=O)COc2coc(CN3CCc4ccccc43)cc2=O)c1,-2.0,·,11.7,·,·,
CN1CCN(C(=O)c2ccc3c(=O)n(CCc4ccccc4)c(=S)[nH]c3c2)CC1,·,·,-10.3,·,-13.3,
C=CCn1c(O)c(C=Nc2ccc(F)cc2)c(=O)[nH]c1=O,-0.3,·,-5.1,·,·,
COc1ccc(CCC(=O)NNC(=O)c2cc(Cl)ccc2OC)cc1OC,-1.7,·,4.9,·,·,
CCc1c(C)nc2c(-c3ccccc3)c[nH]n2c1=O,0.0,·,88.7,·,·,
Cc1ccc(-c2csc3nc(C(C)C)oc(=O)c23)c(C)c1,-0.2,·,71.6,14.9%,·,
O=C1OCC2=C1C(c1ccc(F)cc1)c1cc3c(cc1N2)OCO3 (stereo unspecified),·,-14.4,·,2.0%,·,
CCOC(=O)Nc1ccc2c(c1)N(C(=O)CN(C)C)c1ccccc1CC2,2.5,·,4.4,·,·,
O=C(c1cn(-c2ccccc2)nc1-c1cccs1)N1CCN(c2ccccc2)CC1,10.7,4.0,-1.7,-7.4%,1.4,
CCN1C(=O)c2ccccc2Sc2ccc(C(=O)NC(C)C)cc21,14.4,·,4.0,·,·,
O=C1Nc2ccccc2/C1=N\c1sc2c(c1C(=O)Nc1ccccc1)CCCC2,7.5,-7.0,-3.0,0.1%,-25.8,
CN(Cc1ccccc1)S(=O)(=O)c1ccc(Cl)c(C(=O)NCc2ccc3c(c2)OCO3)c1,3.4,-3.2,1.3,-1.9%,-21.5,
Cc1cccc(OC(=O)c2ccc3nccnc3c2)c1,5.6,-3.0,99.3,?,-12.2,
CCN(CC)CCNCc1nc2ccccc2c(=O)n1-c1ccc(F)cc1,0.5,8.2,-2.7,2.2%,-21.5,
COc1ccc(NC(=S)NNC(=O)Cn2nc(C(F)F)cc2C(F)F)cc1,-2.6,-2.4,-0.1,-0.1%,-9.3,
CN(C)C=Nc1ncc2c([nH]c3ccccc32)c1C#N,1.1,-12.6,-4.4,·,-37.2,
Cc1[nH]c(C)c(S(=O)(=O)NCc2ccco2)c1C(=O)N1CCCCC1,-3.6,·,-2.0,·,·,
SMILES,RecA intein inh,Arbovirus anti,Mtb bLac sens,Mtb growth,YopH PTP inh,others
OC1(Cc2ccn[nH]2)CCCCC1,0.5,-7.8,-0.3,0.4%,-55.0,
COc1cccc(OC)c1C(=O)Nc1cc(C)on1,2.4,1.4,-3.9,·,-0.6,
COc1ccc(Cl)cc1C(=O)NCc1ccco1,0.4,·,-0.8,5.4%,·,
COc1ccc(NC(=O)c2c([N+](=O)[O-])c(C(C)(C)C)nn2C)cc1,·,·,1.5,-0.1%,·,
Cc1nnc(C)c2c(C)n(-c3ccc(Cl)c(N)c3)c(C)c12,-1.4,·,59.1,·,·,
CCC(C)(C)C1CCC(=NNC(=S)Nc2cccnc2)CC1 (stereo unspecified),-3.2,-14.6,1.6,-3.7%,·,
O=C(O)c1ccccc1CSc1ncn[nH]1,2.3,1.8,-3.5,-19.9%,-12.4,
CS(=O)(=O)c1nc(-c2ccc(Br)cc2)cc(-c2ccccc2)c1C#N,1.4,-30.5,-3.6,0.8%,-11.2,
Cc1c(NC(=O)C(C)N2C(=O)NC3(CCC(C)CC3)C2=O)c(=O)n(-c2ccccc2)n1C (stereo unspecified),-0.5,-0.2,0.2,-4.1%,·,
Cc1nc(N2CCN(c3ccccn3)CC2)c2c(C)c(C(=O)Nc3c(C)cc(Br)cc3C)sc2n1,2.2,·,81.5,·,·,
COc1cccc(CN(C)CC(=O)Nc2sc3c(c2C#N)CCC3)c1,1.8,2.1,1.7,7.9%,·,
COc1ccc(NC(=O)C2CCN(c3cc(C)nc(-c4ccccc4)n3)CC2)cc1,1.4,-14.1,0.4,11.4%,-3.6,
CCCOc1ccc(C(CC(=O)O)NS(=O)(=O)c2ccc(NC(C)=O)cc2)cc1 (stereo unspecified),0.0,3.6,-4.2,·,-11.3,
COc1cccc(-c2csc(N3CCN(C(=S)Nc4ccc(Cl)cc4)CC3)n2)c1,5.8,1.3,72.4,-1.5%,-20.2,
O=C(/C=C/c1ccccc1)NCCSc1ccc(Cl)cc1,0.3,8.5,-2.8,5.3%,-47.3,
CCCN(CCC)S(=O)(=O)c1ccc(C(=O)Nc2nc3c(s2)CCc2ccccc2-3)cc1,-13.8,-16.9,9.0,-5.6%,-18.3,
Cc1ccc(CNC(=O)C2CCN(c3nn4c(=O)cc(C)nc4s3)CC2)cc1,-3.2,·,3.3,·,·,
COc1ccc(N(CC(=O)NCCSc2ccccn2)S(=O)(=O)c2ccccc2)cc1Cl,3.9,·,-5.5,·,·,
CCCCC(O)(C(NC=O)C(=O)OC)C(F)(F)F (stereo unspecified),1.6,6.5,-8.1,-3.2%,20.6,
Oc1ccc(/C=C/c2ccc3ccccc3n2)cc1,0.8,-17.9,4.9,3.4%,·,
CCN(CC)C(=O)CN(c1cc2c(cc1OC)oc1ccccc12)S(=O)(=O)c1ccccc1,0.4,-1.6,-2.4,9.2%,-6.8,
CN(CCc1ccccn1)Cc1ccc(Cl)cc1Cl,2.5,3.6,-2.2,-9.5%,-36.7,
CCOC(=O)Cn1c2c(c(=N)c3c1CCC3)CCCC2,-1.8,4.5,-5.2,-4.1%,-20.5,
NC(=O)c1cc(S(=O)(=O)Nc2ccccc2)cs1,-0.8,·,4.8,·,·,
CC(=O)Nc1ccc(NC(=O)c2c(-c3ccccc3)noc2C)cn1,2.1,·,?,·,·,

# Random excerpt: 2 compounds from above.
SMILES,RecA intein inh,Arbovirus anti,Mtb bLac sens,Mtb growth,YopH PTP inh,others
OC1(Cc2ccn[nH]2)CCCCC1,0.5,-7.8,-0.3,0.4%,-55.0,
Cc1ccc(-c2csc3nc(C(C)C)oc(=O)c23)c(C)c1,-0.2,·,71.6,14.9%,·,

# The main list resumes, starting 4 compounds before the break.
SMILES,RecA intein inh,Arbovirus anti,Mtb bLac sens,Mtb growth,YopH PTP inh,others
CN(CCc1ccccn1)Cc1ccc(Cl)cc1Cl,2.5,3.6,-2.2,-9.5%,-36.7,
CCOC(=O)Cn1c2c(c(=N)c3c1CCC3)CCCC2,-1.8,4.5,-5.2,-4.1%,-20.5,
NC(=O)c1cc(S(=O)(=O)Nc2ccccc2)cs1,-0.8,·,4.8,·,·,
CC(=O)Nc1ccc(NC(=O)c2c(-c3ccccc3)noc2C)cn1,2.1,·,?,·,·,
COc1ccc(OCCNC(=O)c2ccccc2OCC(=O)Nc2ccc(NC(C)=O)cc2)cc1,4.1,1.3,-3.0,-0.4%,-35.4,
CCCn1c(CN2CCN(C(C)=O)CC2)nc2cc(S(=O)(=O)N(C)C)ccc21,-0.3,·,11.7,·,·,
CCc1nc(N2CCNCC2)c(C#N)c2c1CSC(C)(C)C2,5.0,16.8,1.6,·,-8.9,
CCc1ccc(-c2cc(C(F)(F)F)n3nc(C(=O)Nc4cnn(Cc5ccccc5C)c4)cc3n2)s1,·,9.0,-5.7,-2.6%,-27.7,
Cc1ccc(OCCN2CCN(CC(O)Cn3c4ccccc4c4ccccc43)CC2)cc1 (stereo unspecified),5.7,-38.0,100.0,9.21µM*,3.3,
CCc1cc(=O)[nH]c(SCc2cccnc2)n1,-0.1,·,?,·,·,
COc1ccc(OC)c(NS(=O)(=O)c2ccc3c(c2)CCC(=O)N3)c1,-1.0,1.2,3.3,-5.6%,-40.8,
COc1ccc(-n2c(Cc3cccn3C)nnc2SCC(=O)N2CCC(C)CC2)cc1,1.6,-6.9,1.5,1.7%,-15.0,Arbovirus anti repeat=-3.9
CC(C)(C)c1ccccc1OCCCCCn1ccnc1,13.6,-23.4,98.3,8.29µM*,·,
O=C(CCCc1nc(-c2ccccc2)no1)Nc1cccnc1,-2.4,3.4,-0.3,-4.5%,-0.6,
O=S(=O)(c1ccc(Cl)cc1)N1CCCC1c1nc(-c2ccc(Cl)cc2)no1 (stereo unspecified),7.6,0.0,6.4,-7.8%,-28.2,
CCN(CC)S(=O)(=O)c1cc(NC(=O)CSc2nnc(-c3cccs3)o2)ccc1C,-3.2,-3.0,-5.2,2.4%,-51.5,
CCCCc1ccc(N=N/C(C(=O)Nc2ccc(NC(C)=O)cc2OC)=C(/C)O)cc1,-5.5,·,98.8,·,·,
CC(=O)Nc1ccc(Oc2cc(C#N)c(C#N)cc2N2CCOCC2)cc1,-3.7,4.7,-5.3,0.3%,-2.3,
CCCN(c1ccc(C(C)C)cc1)S(=O)(=O)c1c(C)noc1C,6.1,4.2,-1.1,-2.5%,-12.6,
CCOC(=O)c1c(NC(=O)CSc2nncs2)sc(C)c1-c1ccccc1,11.6,-6.8,3.9,3.8%,-23.8,
CCc1ccc(NC(=O)COc2ccc(/C=C(/C#N)c3nc4ccccc4[nH]3)cc2OC)cc1,-181.5,8.6,-0.4,10.8%,-12.4,
Cc1[nH]c(=O)c(C#N)c(C)c1CCC(=O)Nc1cc(S(C)(=O)=O)ccc1Cl,4.5,·,-3.2,·,·,
Cc1cccc(NS(=O)(=O)c2ccc3c(c2)Cc2cc(S(=O)(=O)Nc4cccc(C)c4C)ccc2-3)c1C,·,-20.6,-0.1,32.9%,-45.1,
COc1ccc(C2C(C(=O)c3ccco3)=C(O)C(=O)N2CC2CCCO2)cc1 (stereo unspecified),1.6,1.8,22.1,-11.7%,·,
CN(C)CCNc1oc(COc2ccc(Cl)cc2Cl)nc1C#N,-6.0,-6.2,-3.0,-0.3%,-6.3,
CCNC(=O)/C(=C\c1ccccc1)NC(=O)/C=C/c1ccccc1,-0.5,-2.7,-0.3,-4.5%,-33.4,
CCOC(=O)C1=C(N)OC2=C(C(=O)CCC2)C1c1cccnc1 (stereo unspecified),1.7,6.5,-4.5,6.2%,0.7,Arbovirus anti repeat=-1.0
C=CCn1c(=O)c(C(=O)NCCc2ccccc2)c(O)c2ccccc21,3.1,-28.1,0.0,3.7%,-46.5,
O=C(O)CCCCn1c(SCC(=O)Nc2ccccc2C(F)(F)F)nc2ccsc2c1=O,1.6,6.3,-6.9,-1.4%,-8.9,
SMILES,RecA intein inh,Arbovirus anti,Mtb bLac sens,Mtb growth,YopH PTP inh,others
Cc1noc(C)c1CSc1cc(C)c2ccccc2n1,1.3,-17.3,7.2,6.8%,-13.0,
CCC(=C(c1ccc(OC)cc1)c1ccc(OC)cc1)c1cn(CC(O)CN2CCN(C)CC2)c2ccccc12 (stereo unspecified),·,-35.9,100.0,·,-2.6,
CCOC(=O)c1nnn(-c2nonc2N)c1-c1ccccc1,-2.3,0.4,2.0,-3.0%,-21.1,Arbovirus anti repeat=0.1
O=C(/C=C/c1ccccc1)NCC(=O)N/N=C/c1ccco1,-1.8,·,0.6,·,·,
O=C(NNC(=O)c1sccc1-n1cccc1)Nc1ccccc1,3.0,-2.5,2.9,4.0%,·,
CN(CC(=O)Nc1c(Cl)cccc1Cl)C(=O)Cc1ccc2c(c1)CCC2,1.9,·,-6.3,·,·,
CC1CCN(S(=O)(=O)c2ccc3c(c2)N(CC(=O)NCCCOC(C)C)C(=O)CO3)CC1,0.0,·,3.8,·,·,
CC1(C)Cc2c(cnn2-c2cccc(F)c2)C(NC(=O)CN2CCCC2=O)C1 (stereo unspecified),2.8,·,-5.5,·,·,
Cc1c(NC(=O)CN2C(=O)NC3(CCCC3)C2=O)c(=O)n(-c2ccccc2)n1C,-6.6,6.8,-3.5,-4.3%,·,

# An excerpt; rates above refer to the full screens.
